Assay outcomes from PubChem.
LANA-nucl inh – inhibitors of KSHV LANA binding to nucleosomes; FITC-LANA1-23 / chicken nucleosome fluorescence polarization; hits give low values; z-score (test concentration not listed); 0.3% of 51,000 active; AID 720717;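 active = both repeat wells score below -2 in polarization z-score versus plate sample wells, excluding overly bright wells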;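 note: 100 nL library stock added to about 30 µL; numbers are from one replicate; some results filed as inactive read as strong as hits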
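test system = FITC-LANA peptide and chicken nucleosomes | amount = 240 nM purified chicken nucleosomes (480 nM peptide binding sites), final | reagent = 50 nM FITC-LANA1-23 probe | medium = TEN-BT buffer, pH 7.5 | doses = single compound addition by pin transfer, 100 nL per well | timing = 10–45 min, room temperature | detection = fluorescence polarization | repeats = duplicate plates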
BasE inh – inhibitors of Acinetobacter baumannii siderophore enzyme BasE | purified BasE, fluorescence polarization binding displacement | inhibition, % (test concentration not listed) | 0.1% of 84,000 active | AID 485350;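 active = both replicates above 25% with normal brightness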;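 note: 0% = negative plate control signal and 100% = positive plate control signal; stock transfer was 100 nL into about 30 µL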
* marks the source's active call; other numbers are inactive results; · = no result given.

The opening four records as a preview:
smiles,LANA-nucl inh,BasE inh
CCOC(=O)c1ccc(NCc2cn[nH]c2-c2ccc(C)cc2)cc1,1.94,-3.9
NNC(=O)CN1CCCCCC1=O,·,0.4
CN1CCN(c2c3c(nc4ccccc24)-c2ccccc2CC3)CC1,-0.855,·
Cc1cc(OCC(=O)c2ccc(F)cc2)ccc1N1C(=O)CCC1=O,0.447,-3.0

The whole of this part (from the top)
smiles,LANA-nucl inh,BasE inh
CCOC(=O)c1ccc(NCc2cn[nH]c2-c2ccc(C)cc2)cc1,1.94,-3.9
NNC(=O)CN1CCCCCC1=O,·,0.4
CN1CCN(c2c3c(nc4ccccc24)-c2ccccc2CC3)CC1,-0.855,·
Cc1cc(OCC(=O)c2ccc(F)cc2)ccc1N1C(=O)CCC1=O,0.447,-3.0
COC(=O)CSC1=C(C#N)C(c2cccc(Cl)c2Cl)C2=C(CCCC2=O)N1 (stereo unspecified),0.211,1.1
CCn1c(CCC(=O)NCc2ccc(C)cc2)nc2cc(S(=O)(=O)N(C)C)ccc21,·,1.0
CCOc1ccc(C(=O)Nc2ccc(-c3nc4ccccc4o3)cc2)cc1Br,0.4,-0.8
O=C1c2ccccc2C(=O)N1CC12CC3CC(CC(C3)C1)C2,·,2.0
C=CCOC1C=CC=CC1C(c1c(C)[nH][nH]c1=O)c1c(C)[nH][nH]c1=O (stereo unspecified),·,1.0
Cc1ccc(CC(=O)N2CCN(S(C)(=O)=O)CC2)cc1,-1.05,-3.4
Cc1cc(C)n(CCC(=O)NC2CCCc3ccccc32)n1 (stereo unspecified),-0.602,-0.6
CC(=O)Oc1c(C(C)(C)C)ccc(C(C)(C)C)c1O,0.449,3.4
CCN(CC)CCC1S(=O)(=O)CC(c2ccccc2)CS1(=O)=O (stereo unspecified),·,0.1
OCC[N+]12CCCCC1[C@H](CO)CCC2 (stereo partly specified),0.118,0.7
CCOC(=O)N1CCC(NC(=O)CCS(=O)(=O)c2ccc3c(c2)CCN3C(=O)CC)CC1,-0.541,4.0
COc1cc(C)c(Cc2cnc(N)nc2N)cc1OC,0.237,·
CCN(c1ccccc1)c1cc2ccccc2c(=O)[nH]1,-0.981,4.1
Cc1ccc(/C=C/C(=O)NCCCn2ccnc2)cc1,0.564,-1.5
COc1ccc(OC(=O)c2csc(Cc3c(Cl)cccc3Cl)n2)cc1,·,-0.5
Cc1ccc(-c2noc(-c3cc(C(C)C)[nH]n3)n2)cc1,0.593,-1.9
Cc1cccc(N2CN(CCc3ccccc3)CNC2=S)c1C,-0.164,1.9
Cc1ccc(Nc2nc(COC(=O)/C=C/c3ccc(C)o3)cs2)cc1,·,-2.7
COc1ccc(C(=O)N2CCN(C34CC5CC(CC(C5)C3)C4)CC2)cc1OC,0.68,-1.6
Cc1ccc(NC(=O)NCCCN2CCCC2=O)cc1,1.62,-1.7
O=C(Nc1cc(=O)[nH]c(=O)[nH]1)c1cc(Br)ccc1Cl,-0.735,0.8
O=C(CN(Cc1ccco1)S(=O)(=O)c1ccc(Cl)cc1)N1CCCc2ccccc21,·,0.3
O=C1CCCN1C(=O)CSc1n[nH]c(=O)n1CCc1ccccc1,·,1.0
O=C1Oc2ccc3ccccc3c2C1(O)C(F)(F)F (stereo unspecified),-0.121,-1.7
Cc1nnc(SCc2ccc(C#N)cc2)n1C1CC1,·,0.4
Cc1ccc(-c2cn3ccsc3n2)cc1,·,-3.4
COCC(C)N=Cc1c(O)[nH]c2ccccc12 (stereo unspecified),0.423,2.6
Cc1ccc(NC(=O)CSc2nnc3ccccn23)cc1,·,2.0
Cc1cc(C)nc(NC(=O)CSC(=S)N2CCOCC2)n1,·,0.8
CN(C)C(=O)Nc1cccc(O)c1,0.392,3.1
CCN1CCN(C(=O)/C(C#N)=c2\s/c(=C\c3ccco3)c(=O)n2-c2ccc(Cl)cc2)CC1,·,-0.3
Cc1nnsc1C(=O)Nc1cccc(C(F)(F)F)c1,-0.944,-0.4
CCOC(=O)Cn1nc(-c2ccccc2)c2ccccc2c1=O,-0.68,-0.2
CC(C)(C)c1ccc(-c2[nH]nc(NS(=O)(=O)c3ccccc3)c2Br)cc1,·,0.6
O=C(CC(F)(F)F)Nc1ccccn1,0.601,1.7
COc1ccc(C2N(C)c3ccccc3N2C)cc1,0.728,-0.5
O=C(OCC(=O)N1CCCC1=O)C(c1ccccc1)c1ccccc1,·,1.4
Cc1nc2cc(NC(=O)CCN3C(=O)NC4(CCCC4)C3=O)ccc2n1-c1ccccc1,·,-0.4
Cc1cc(NC(=O)CSc2nc3ccccc3c(=O)n2CCO)n(-c2ccccc2)n1,·,-0.6
Cc1ccc(C)c(NC(=O)CSc2c(C)n[nH]c2C)c1,0.549,0.3
Cc1nn(-c2ccccc2)c(Cl)c1C1N2CCCN1CC2 (stereo unspecified),1.98,-3.9
CCOC(=O)COc1ccc(C2=Nc3ccccc3NC(c3ccccc3)C2)cc1 (stereo unspecified),·,-2.9
C=CCSc1ncnc2c1sc1nc(CC)c3c(c12)CCCC3,·,-2.7
O=C(COc1ccccc1)c1ccc(O)c(O)c1O,0.153,1.8
COCCNC(=O)c1ccc(N2CC3CC(C2)c2cccc(=O)n2C3)c(NC(=O)c2ccc(F)cc2)c1 (stereo unspecified),-1.74,3.3
CCCCc1ccc(-n2nc3cc(C)c(NC(=S)NC(=O)c4ccco4)cc3n2)cc1,0.145,2.7
CSC1=NCCN1C(=O)c1ccc(S(=O)(=O)N2CCCC2)cc1,-0.134,2.5
CCC(=O)NCc1nc(-c2ccccc2)no1,2.44,-3.1
CC1(/[N+]([O-])=C/c2ccc(Br)cc2)CCCCC1=O (stereo unspecified),1.06,-1.2
COc1ccccc1CN(C)C(=O)C1COc2ccccc2O1 (stereo unspecified),·,-0.1
C=CCN(CC=C)S(=O)(=O)c1ccc(C(=O)Nc2ccccc2-c2nc3ccccc3[nH]2)cc1,·,-1.7
Cc1nc(/N=C(/N)NC(=O)Cc2ccccc2)nc2ccccc12,-0.591,0.1

Going on with the list.
smiles,LANA-nucl inh,BasE inh
COc1ccc(NC(=S)N2CCCC(c3ccccc3)=N2)cc1,·,1.4
COC(=O)CN1C(=O)CS/C1=C\C#N,·,2.3
O=C(CSc1ncccn1)NC(=O)NCc1ccco1,·,1.2
CC(C)N(C(=S)NCC1CCCO1)c1ccccc1 (stereo unspecified),·,2.1
COC(=O)c1cnn(-c2ccccc2)c1-n1cccc1,2.37,-0.5
Cc1cc(C)cc(Nc2cc(=O)oc3ccccc23)c1,·,-1.4
Cc1ccc(NC(=O)CNC(=O)c2ccc(Br)o2)c(C)c1,2.7,-3.4
c1ccc(-c2nnc3n2C2(CCCC2)Cc2ccccc2-3)cc1,·,0.8
COC(=O)c1ccc(N=Cc2cccs2)cc1,-0.701,0.9
O=C(O)c1ccc2c(c1)C(=O)N(c1ccccn1)C2=O,-1.2,0.8
CC1CC(NC(=S)NCc2csc3ccccc23)CC(C)(C)C1 (stereo unspecified),·,-4.4
O=C(COC(=O)c1cc(=O)[nH]c(=O)[nH]1)Nc1ccccc1,·,-1.0
CNc1nc(-c2c[nH]c3ccc(F)cc23)cs1,0.552,-2.6
Cc1cccc(-n2c(Cc3cc(=O)[nH]c(=O)[nH]3)nnc2SCC(=O)NC2CCCC2)c1,-0.891,2.0
N#Cc1cccc(C(c2nnnn2Cc2ccccc2)N2CCCC2)c1 (stereo unspecified),1.75,-3.9
CSc1nnc(CNC(=O)C2CCCC2)n1C,-0.291,-1.7

Copied from the list.
For BasE inh, N#Cc1cccc(C(c2nnnn2Cc2ccccc2)N2CCCC2)c1 (stereo unspecified) reads -3.9
For BasE inh, CCOC(=O)Cn1nc(-c2ccccc2)c2ccccc2c1=O reads -0.2
For BasE inh, C=CCOC1C=CC=CC1C(c1c(C)[nH][nH]c1=O)c1c(C)[nH][nH]c1=O (stereo unspecified) reads 1.0

Next records
smiles,LANA-nucl inh,BasE inh
COC(=O)c1c2c(nc3ccccc13)CCCCC2,·,0.2
CCOc1ccc(-c2nc(CN3CCCCC3)cs2)cc1,·,-4.6
CS(=O)(=O)c1cccc(S(=O)(=O)Nc2cccc(C(F)(F)F)c2)c1,-1.32,1.2
CCCN1C(=O)/C(=c2\sc3nc(=O)c(-c4ccccc4)nn3c2=O)c2ccccc21,·,1.2
N#Cc1ccc(NC(=O)c2cccs2)cc1,·,-2.2
O=C(O)c1ccc(N=Cc2cccn2-c2ccc(Br)cc2)cc1,·,2.1
Cc1ccc(-c2nnc(Nc3ccc(S(N)(=O)=O)cc3)c3ccccc23)cc1S(=O)(=O)N1CCN(C)CC1,-0.735,-0.9
CC(NC(=O)COc1ccc(F)cc1Cl)C1CCCO1 (stereo unspecified),-1.45,1.8
Cc1cn(COCCO)c(=O)[nH]c1=O,-0.695,0.6
CCOC(=O)NC(=O)Cn1nnc(-c2cccc(C(F)(F)F)c2)n1,·,-2.5
Cn1nnnc1SCCC(=O)Nc1ccccc1,0.077,0.1
CSc1ccccc1C(=O)OCC(=O)NC1CC1,·,1.7
C/C=C1\C2C=C(C)CC1(N)c1ccc(=O)[nH]c1C2 (stereo unspecified),·,-1.8
Cc1ccc2nc3sc(C(=O)O)c(N)c3cc2c1,0.294,1.9
C=CCNC(=O)c1ccc(-c2cc(C(F)(F)F)ccc2Cl)o1,0.231,-2.5
C=CCN1C(=O)C(CC(=O)NCC(=O)O)SC1=Nc1ccc(Cl)cc1 (stereo unspecified),0.0855,2.1
CSC1=N/C(=C\c2ccc(Br)cc2)C(=O)S1,·,2.1
CC(=O)Nc1cccc2c1C(=O)NC2=O,·,0.0
O=C1CN(C(=O)c2ccc3c(c2)S(=O)(=O)c2ccccc2C3=O)c2ccccc2N1,·,0.7
Cc1cccn2cc(CSc3nnc(-c4nn(Cc5ccccc5)c(=O)c5ccccc45)o3)nc12,·,0.6
C#CCOC(=O)Nc1ccc(Cl)c(Cl)c1,0.487,1.1
O=C(O)COCC(=O)Nc1ccc(Oc2cccc(C(F)(F)F)c2)nc1,·,3.8
CC1(C)CC(=O)c2cc(C(=O)O)c(=O)n(-c3ccccc3)c2C1,-1.22,-0.1
CC1(C)C2CC1[C@](C)(O)[C@H](O)C2 (stereo partly specified),-0.226,0.3
Cc1c(NC(=S)N2CCN(c3ccc(F)cc3)CC2)c(=O)n(-c2ccccc2)n1C,-0.36,1.9
Cc1cccc(-c2nc3sc(C)cc3c(=O)o2)c1,-0.027,0.8
CC1SCC(=O)N(c2ccc(F)cc2F)C1=O (stereo unspecified),-0.455,·
Cc1ccc(Nc2nc3ccccc3s2)cc1Cl,·,0.9
O=c1c(Cl)c(NCc2ccccn2)cnn1C12CC3CC(CC(C3)C1)C2,-0.462,5.0
O=C(CCCc1ccccc1)NC1CCCC1,0.164,0.2
CCOC(=O)C1=C(O)CCN(C)C1,·,2.8
COC(=O)C1=CN(N(C(C)=O)C(C)=O)C(=O)CC1,-0.293,3.8
O=C1NC(c2cccc(F)c2)c2c1n[nH]c2-c1cccs1 (stereo unspecified),1.11,-4.5
CC1CCC/C(=C/Nc2ccccc2C(=O)O)C1=O (stereo unspecified),-0.124,-0.1
CN(C)CC(O)COC(c1ccccc1)c1ccccc1 (stereo unspecified),·,1.2
CC(C)C1C(C#N)=C(N)Oc2nc(SCc3ccccc3)[nH]c(=O)c21 (stereo unspecified),1.33,1.8
Cc1nn(-c2ccccc2)c(C)c1CCC(=O)O,-0.432,-1.2
O=C(Cn1ncc(Cl)c(Cl)c1=O)NCc1ccccc1,·,0.1
c1ccc(Cc2nnc(-c3ccccc3)o2)cc1,-0.107,-0.6
Cc1cccc(C(=O)N2CCN(c3ccc(C(F)(F)F)cn3)CC2)c1C,·,0.0
CC(C)N=Cc1ccc(-c2ccccc2)cc1,·,1.4
Fc1cc(F)c2nc(N3CCOCC3)sc2c1,-0.542,0.5
Cn1c(SCc2cccc(-c3noc(-c4ccc(Cl)cc4)n3)c2)nnc1C(F)(F)F,2.25,-3.6
Cc1ccc(-n2c(=O)c3oc4ccccc4c3n(CC(=O)NC(C)(C)C)c2=O)cc1,-0.071,-0.9
FC(F)(F)c1cnc(-c2cnoc2)c(Cl)c1,1.28,·
COc1ccccc1NC(=O)CC1COc2ccccc2O1 (stereo unspecified),-0.0845,-1.3
CC(=O)N1CCc2cc(S(=O)(=O)CCC(=O)Nc3ccc(C)cc3Cl)ccc21,0.394,-0.4
CCN(CCO)C(=O)C12CCC(C)(C(=O)C1)C2(C)C (stereo unspecified),0.103,-2.3
O=C(COc1coc(CN2CCc3ccccc32)cc1=O)c1ccccc1,0.116,0.4
Cn1c(C(=O)Nc2ccc3c(c2)OCCO3)cc2c(=O)[nH]c3ccccc3c21,-1.29,-0.2
NNC(=O)c1csc(COc2cc(Cl)cc(Cl)c2)n1,·,-4.3
Cn1nc(-c2ccc(Cl)cc2)c2cc(C(=O)N3CCN(c4cccc(Cl)c4)CC3)sc21,0.297,1.1
C=CCn1c(=S)sc2c(=O)[nH]cnc21,·,-0.1

This is a subset, so the mix of outcomes need not match the whole.
